# Bioassay records: PubChem BioAssay, National Center for Advancing Translational Sciences (NCATS)
# VDR inhibitor: inhibitors of human vitamin D receptor; P11473; VDR-SRC2-3 peptide fluorescence polarization, 2 h; Potency, µM, for the others: max response, negative = inhibition, usual class: inhibitors; 0.93% of 400,000 active; active means well fitted inhibition curve with a large enough effect; inconclusive means small, poorly fitted or top-dose-only effect, or another doubt; inactive means no such curve, though single readings can be large or run the other way; further: series mostly up to about 120 µM
# Target sequence (P11473 whole entry, looked up): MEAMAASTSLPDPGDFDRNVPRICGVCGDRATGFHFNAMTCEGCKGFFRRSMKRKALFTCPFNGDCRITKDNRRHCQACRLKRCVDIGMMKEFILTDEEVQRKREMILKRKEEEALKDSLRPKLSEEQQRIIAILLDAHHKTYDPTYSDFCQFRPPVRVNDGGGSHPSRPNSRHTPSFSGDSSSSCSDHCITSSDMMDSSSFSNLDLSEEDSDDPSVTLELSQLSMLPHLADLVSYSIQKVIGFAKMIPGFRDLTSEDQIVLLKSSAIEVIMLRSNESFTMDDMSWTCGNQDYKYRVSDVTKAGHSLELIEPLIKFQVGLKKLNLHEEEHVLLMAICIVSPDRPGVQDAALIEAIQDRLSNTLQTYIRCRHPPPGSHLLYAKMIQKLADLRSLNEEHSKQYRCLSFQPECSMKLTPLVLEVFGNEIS
#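 Signal is fluorescence polarization, reporting how far test compounds block the interaction of VDR with the SRC2-3 coregulator peptide after a 2 h room-temperature incubation.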
# * hit, by the source's call; ? = inconclusive; & = joins results of further samples. On the % scale 0 is the no-effect control and ±100 the full control effect; potency means the concentration at half of the fitted maximal effect. The list is partial; the hit share may differ from the screen's.
SMILES,VDR inhibitor
O=c1c(-c2ccc(Cl)cc2)cnc2n1CCS2,-1%
CCn1c(=NC(=O)c2ccc3c(c2)OCCO3)sc2c(C)ccc(OC)c21,8%
O=C(COC(=O)CC1CCCC1)Nc1ccc(Br)cc1F,-7%
O=C1C2CC=CCC2C(=O)N1c1ccc(NCCc2ccccc2)c([N+](=O)[O-])c1 (stereo unspecified),-3%
CCCCCn1c(CCCNC(=O)c2ccccc2)nc2ccccc21,-16%
COc1cccc(N2CCN(Cc3ncc(-c4ccccc4)o3)CC2)c1,-12%
Cc1ccc(NC(=O)CN(C)C(=O)COc2ccc(C(=O)c3ccc(F)cc3)cc2)cc1,3%
CN(Cc1nc2ccccc2n1C)c1ccccc1,-11%
COc1ccc(C(=O)C2CCCN(C(=O)c3cc(C4CC4)[nH]n3)C2)c(C)c1 (stereo unspecified),-5%
CCOc1ccc(C(=O)NCCCN2CCCC2=O)cc1,-3%
O=C(O)CN1C(=O)CC(c2ccccc2)CC1=O,16%
Cc1ccc(NC(=O)c2ccc(OCc3c(C)noc3C)cc2)nc1,7%
O=C(Nc1ccc(NC(=O)c2cccs2)c(Cl)c1)c1cccs1,11%
COC(=O)c1ccc(/C=N\n2c(C)nnc2C)cc1,-12%
Cc1ccc(CN2CCN(/N=C/c3cccn3C)CC2)c(C)c1,-9%
Cc1ccc(S(=O)(=O)NC2(C(F)(F)F)NC(=O)N(CCc3ccccc3)C2=O)cc1 (stereo unspecified),1%&-15%
CC(C)C(NC(=O)c1ccccc1F)C(=O)OCC(=O)c1ccc(F)cc1 (stereo unspecified),0%
CCN(Cc1ccccc1)C(=O)Cn1c(=O)n(-c2ccc(Cl)cc2)c(=O)c2c(C)c(C)sc21,1%
CCCCn1c(N)c(N(CC(C)C)C(=O)c2oc3c(Cl)cccc3c2C)c(=O)[nH]c1=O,-13%
CCCn1c(N)c(C(c2ccc(C(=O)OC)cc2)N2CCN(c3ccccc3)CC2)c(=O)[nH]c1=O (stereo unspecified),-2%

# Ordered by count of non-hydrogen atoms (ascending): some entries from above
SMILES,VDR inhibitor
Cc1ccc(NC(=O)c2ccc(OCc3c(C)noc3C)cc2)nc1,7%
Cc1ccc(S(=O)(=O)NC2(C(F)(F)F)NC(=O)N(CCc3ccccc3)C2=O)cc1 (stereo unspecified),1%&-15%
CCCCn1c(N)c(N(CC(C)C)C(=O)c2oc3c(Cl)cccc3c2C)c(=O)[nH]c1=O,-13%
CCN(Cc1ccccc1)C(=O)Cn1c(=O)n(-c2ccc(Cl)cc2)c(=O)c2c(C)c(C)sc21,1%
CCCn1c(N)c(C(c2ccc(C(=O)OC)cc2)N2CCN(c3ccccc3)CC2)c(=O)[nH]c1=O (stereo unspecified),-2%

# Next records.
SMILES,VDR inhibitor
Clc1ccc(Oc2nc(N3CCOCC3)nc(N3CCOCC3)n2)c(C2CCCCC2)c1,1%
CN(C)c1ccc(/C=C(\NC(=O)c2ccccc2)C(=O)NCCCn2ccnc2)cc1,13%
CCCCn1c(N)c(N(CC(C)C)C(=O)Cc2ccc(S(=O)(=O)N3CCOCC3)s2)c(=O)[nH]c1=O,-7%
Cc1ccc(CNC(=O)c2cc3c(=O)n(C)c4ccccc4c3n2C)cc1,-30%
CCn1c2ccc(Cl)cc2c2nc3ccccc3nc21,9%
COc1ccccc1/C=N/NC(=O)CO,-5%
CC1CC2=C(C(=O)O1)C(c1ccccc1)Nc1ccccc1N2 (stereo unspecified),-24%
Cc1ccc(C2=C(O)C(=O)C(c3ccc(C)cc3)=C(O)C2=O)cc1,-8%
COc1ccc(-c2nc3ccccc3nc2-c2ccccc2)cc1,?
c1ccc(-c2nnnn2-c2ccccn2)cc1,18%
COc1ccc2c(CCNC(=O)/C=C/c3ccc(OC)c(OC)c3)c[nH]c2c1,4%
CCCn1nnc(NC(=O)c2ccc(-c3cccc(Cl)c3)o2)n1,-3%
Cc1cc(NC(=O)Cc2ccccc2)ccc1NC(=O)c1cccs1,0%
O=C(NCC1CCCO1)c1ccc(S(=O)(=O)N2CCC(c3nc4ccc(Cl)cc4[nH]3)CC2)cc1 (stereo unspecified),-1%
Cc1cc(C(=O)CCl)c(C)n1-c1c(C)n(C)n(-c2ccccc2)c1=O,9%
COc1ccc(C(=O)C[n+]2ccc(N(C)C)cc2)cc1,8%
Cc1ccc(C(=O)OCC2OC3OC(C)(C)OC3C2O)cc1 (stereo unspecified),-15%
CCOc1ccc2oc(C(=O)OCC(=O)NCc3ccc(OC)cc3)c(C)c2c1,-20%
CCC1CCCCN1CCCNC(=O)CN1C(=O)COc2ccc(S(=O)(=O)N3CCC(C)CC3)cc21 (stereo unspecified),-7%
Cc1cc(C)cc(NC(=S)N(CCN2CCCCC2)Cc2ccco2)c1,-7%
O=C(CC1C(=O)N(c2ccccc2)C(=O)N1C1CCCCC1)Nc1ccccc1 (stereo unspecified),-1%
N#CC12CCCCC1CC1CCCCC1(C#N)N2CCO (stereo unspecified),21%
COc1ccc(Nc2nnc(C)c(=O)[nH]2)c(OC)c1,-2%
Cc1cccc(NC(=O)CN2C(=O)CSC2=O)c1,8%
Cc1ccc(Cl)cc1NC(=O)Cn1c(=O)n(CCC(=O)N2CCc3ccccc3C2)c(=O)c2ccccc21,-2%
CC(C)Nc1nc(C#N)nc(NC(C)C)n1,-13%&-11%
O=C(COc1ccccc1)NCC(c1ccco1)N1CCN(c2ccc(F)cc2)CC1 (stereo unspecified),17%
CN(C)c1ncc2nc(-c3ccc(F)cc3)c(=O)n(Cc3ccc(F)cc3)c2n1,-3%
CC(C)(C)c1ccc(C(=O)NCCC(=O)Nc2ccc(S(=O)(=O)Nc3nccs3)cc2)cc1,4%
COc1ccccc1NC(=O)Cn1cnc2c(cnn2-c2ccccc2)c1=O,9%
C[C@@]12C(=O)OC(=O)[C@@]1(C)C1CCC2O1,-9%
O=C(CCC1CCCCC1)NCCN1C2=NC[C@H](Cc3ccc(O)cc3)N2C[C@H]1Cc1ccc(O)cc1,0%
CCOC(=O)c1ccc(NC(=O)C2CC(=O)N(c3ccc4c(c3)OCCO4)C2)cc1 (stereo unspecified),-6%
Cc1cc(Br)ccc1NC(=O)CNC(=O)CN(C)C1CCS(=O)(=O)C1 (stereo unspecified),-15%
O=S1(=O)c2ccccc2N(Cc2ccc(Cl)cc2F)c2ccccc21,0%
S=c1nc(C2CCCCC2)n(-c2ccccc2)[nH]1,18%
COc1ccc(NC(=O)CSc2ccccc2)cn1,11%
COC(=O)C1=C(C)Nc2nnnn2C1c1ccccc1Cl (stereo unspecified),5%
CC(OC1=CC(=O)CCC1)C(=O)c1ccccc1 (stereo unspecified),-5%
O=C(NCCCN1CCOCC1)c1ccccc1N1C(=O)[C@@H]2Cc3c([nH]c4ccccc34)C(c3ccc(F)cc3)N2C1=O (stereo partly specified),-3%
COc1cc(OC)c2ccc(=O)oc2c1C(CCN1CCOCC1)c1ccc2c(c1)OCO2 (stereo unspecified),-2%&-1%
CN(C)c1oc(-c2ccc(OCc3ccccc3)cc2)nc1C#N,2%
O=C(NC1CCCCC1)N(CCN1CCOCC1)Cc1cc2cc3c(cc2[nH]c1=O)OCCO3,4%
CC(C)c1nn2c(=O)cc(COC(=O)c3cccs3)nc2s1,2%
CCCCn1c(N)c(N(CCOC)C(=O)c2cc(-c3ccc(OC)cc3)nc3ccccc23)c(=O)[nH]c1=O,-11%
CC(/C=C/c1ccccc1)=N/NC(=O)c1cnccn1,-7%
CCOC(=O)C1=C(O)C(=O)N(c2ccc(S(N)(=O)=O)cc2)C1c1ccc(Cl)cc1 (stereo unspecified),-23%
O=C(NC1(C(F)(F)F)NC(=O)N(Cc2ccccc2)C1=O)c1cccs1 (stereo unspecified),3%
COc1cccc(C(=O)CSc2nc3ccccc3n2CC(=O)N(C(C)C)C(C)C)c1,5%
CN(c1ccccc1)S(=O)(=O)c1ccc(NC(=O)c2nc(S(C)(=O)=O)ncc2Cl)cc1,20µM*
# The listing continues.
SMILES,VDR inhibitor
CCc1nc(CN2CCN(c3cc(C(F)(F)F)ccn3)CC2)c(C)[nH]1,0%
O=c1c(CCc2ccccc2)nc2cnc(Oc3ccccc3)nc2n1C[C@H]1CCCO1,-24%
COc1cccc(COc2nc3c(c(=O)n(C)c(=O)n3C)n2C)c1,12%
COc1ccc(S(=O)(=O)N2CCC(C(=O)NCC(c3cccs3)N(C)C)CC2)cc1 (stereo unspecified),4%
Cc1c(N=C2NC(=O)C(CC(=O)Nc3ccccc3)S2)c(=O)n(-c2ccccc2)n1C (stereo unspecified),-11%
CCc1ccccc1NC(=S)N1CCN(c2ccccc2F)CC1,1%
O=C(O)c1ccccc1C(=O)NCC(O)COc1ccc(Cl)cc1 (stereo unspecified),7%
Cc1ccc(C)c(N2CCN(C(=O)Cn3cnc4nc5c(cc4c3=O)CCCC5)CC2)c1,2%
COc1cc(OC)cc(C(=O)NC2CC3CCC(C2)N3C)c1 (stereo unspecified),-8%
C#CCN1C=CC(=O)[C@@H](OC(=O)Nc2ccc(Br)cc2)[C@H]1c1ccccc1Br,-4%
N#CCCNc1ccc(OCCC#N)cc1,13%
Cc1ccc(-n2c(CSc3nc(C)cc(C)n3)nnc2SCC(=O)N2CCCC2)cc1,11%
Cc1ccc(C(=O)Nc2ccc(C(=O)OCc3cc(=O)n4nc(C5CC5)sc4n3)cc2)cc1,13%
O=C(NCCCN1CCN(c2ccccc2F)CC1)c1cc2c(Cl)nc3ccccc3c2s1,-15%
Cc1ccc(-n2nnnc2SCC(=O)N2CCc3ccccc3C2)cc1,6%
NS(=O)(=O)c1ccc(NC(=S)NCc2cccc(Cl)c2)cc1,-12%
CCOC(=O)CN1C(=O)CSc2ccc(S(=O)(=O)N3CCOCC3)cc21,-7%
CCOC(=O)N1CCN(C(=O)C2CCC(=O)N2C(C)C)CC1 (stereo unspecified),1%
CNC(=O)C1CCN(Cc2cc3ccccc3n2Cc2cccc(C)c2)CC1,9%
C/C(=N\NC(=O)C1CCCC1)c1ccc(Cl)c(Cl)c1,9%
CC(=O)c1ccc(S(=O)(=O)Nc2ccc(-c3ccc(N4CCCCC4)nn3)cc2)cc1,11%
COc1cccc(NC(=O)COC(=O)C2CCN(S(=O)(=O)c3cccs3)CC2)c1,17%
c1nc(SSc2ncnc3nc[nH]c23)c2[nH]cnc2n1,25µM*
Cc1cccn2c(CN[C@H]3CCCCNC3=O)c(C(=O)N3CCOCC3)nc12,9%
c1ccc(CN2CN=C(Nc3nc4ccccc4s3)NC2)cc1,-4%
CCOC(=O)c1ccc(S(=O)(=O)NC2CCCCCCC2)n1C,13%
Cc1ccc(C(=O)c2c3ccc(C(F)(F)F)cc3nn2CCC(N)=O)cc1,-2%
CCN(c1cc(C)cc(C)c1)S(=O)(=O)c1nnc(NC(=O)c2cccs2)s1,9%
Cc1noc2ncnc(NCc3cccc(Cl)c3)c12,6%
CC1(OC(=O)c2ccco2)C(=O)C=C2C=C(C3CC3)OC=C2C1=O (stereo unspecified),?
NC(=O)NCc1ccc(F)cc1,-9%
O=c1c2[nH]c3ccccc3c2nc2n1CCS2,4%
CCC(=O)N1CCC2(CC1)Oc1ccc(Cl)cc1C(=O)C21CC(c2ccccc2)=NO1 (stereo unspecified),-3%
COc1ccccc1C1=NNC(=Nc2cccc(S(=O)(=O)N(C)C)c2)SC1,?
Cc1cc(C)c2nc(NC(=O)c3ccc4c(=O)n5c(nc4c3)CCCCC5)sc2c1,-15%
O=C(COc1ccccc1)Nc1c(C(=O)N2CCN(c3ccc(F)cc3)CC2)oc2ccccc12,-6%
O=C(CSc1ccc2nc(-c3ccccc3)cn2n1)NCC1CCCO1 (stereo unspecified),4%
O=C(Nc1ccc(OCc2ccccc2Cl)cc1)c1cccnc1,6%
O=C(NCc1n[nH]c(=S)n1-c1ccc(F)cc1)c1ccco1,11%
Cc1ccc(C2=N/C(=C\c3ccc(OS(=O)(=O)c4ccc(C)cc4)cc3)C(=O)O2)cc1,?

# Arranged by value in VDR inhibitor (ascending): six of the compounds above.
SMILES,VDR inhibitor
CCCCCn1c(CCCNC(=O)c2ccccc2)nc2ccccc21,-16%
O=C(COc1ccccc1)Nc1c(C(=O)N2CCN(c3ccc(F)cc3)CC2)oc2ccccc12,-6%
COc1ccc(C(=O)C2CCCN(C(=O)c3cc(C4CC4)[nH]n3)C2)c(C)c1 (stereo unspecified),-5%
CCCn1nnc(NC(=O)c2ccc(-c3cccc(Cl)c3)o2)n1,-3%
CCN(Cc1ccccc1)C(=O)Cn1c(=O)n(-c2ccc(Cl)cc2)c(=O)c2c(C)c(C)sc21,1%
CCn1c(=NC(=O)c2ccc3c(c2)OCCO3)sc2c(C)ccc(OC)c21,8%

# (cont.)
SMILES,VDR inhibitor
O=C(CC1C(=O)NCCN1Cc1ccc(Cl)c(F)c1)NC1CCCCC1 (stereo unspecified),?
O=C(CN1C(=O)CC(c2ccco2)Sc2ccccc21)Nc1ccccc1F (stereo unspecified),79µM*
O=C(Nc1ccc(N2CCCC2)cc1)c1ccc(Cl)cc1Cl,21%
Cc1cc2oc(C(=O)Nc3ccc(S(=O)(=O)N(C)Cc4ccccc4)cc3)cc(=O)c2cc1C,3%
COc1cccc(C(=O)N(Cc2nc(-c3ccc(C)cc3)no2)C(C)C)c1,3%
Cc1ccc(N2C(=O)C3CCCN3C2=S)cc1 (stereo unspecified),14%
COc1ccc(N2CC(NC(=O)C(c3ccccc3)c3ccccc3)CC2=O)cc1 (stereo unspecified),-1%
Cc1cccc(OCCCC(=O)Nc2ccc(S(N)(=O)=O)cc2)c1,10%
Cn1c(=O)c2c(nc(N/N=C/c3ccco3)n2C)n(C)c1=O,-2%
COc1ccc(Nc2nnc(SCC(=O)c3cc4ccccc4o3)s2)cc1,?
O=C(O)c1cccc2c1-c1ccc([N+](=O)[O-])cc1C2=O,5%
CC(=O)NC(=O)c1cnn(-c2ccccc2)c1N,-5%
Cn1nc(OCc2ccccc2)ccc1=O,4%
